Compound activity (PubChem)
BJeLR lethal: kills HRASV12-expressing BJeLR cells | 0.17% of 300,000 active | inhibition, % (test concentration not listed) | BJeLR (HRASV12) viability, CellTiter-Glo ATP luminescence, 48 h; reference of the scale not given here | AID 1554;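 active = replicate mean above 50%; inconclusive = above 50% but judged a plate artefact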;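 also: 50 nL library stock added to about 25 µL; numbers are from one replicate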
PrP UTR inh: suppresses PrP 5' UTR mRNA reporter expression | cell-based PrP 5' UTR mRNA reporter, plate reader | inhibition, % (no concentration beside the values) | 0.35% of 340,000 active | AID 488862;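 active = every replicate at 50% or more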;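 also: 0 = median of the neutral control wells; tested in H4 reporter cells; numbers are from one replicate; inactives centre near -14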
RN4220 kill: S. aureus RN4220 growth inhibition | AID 1259311 | OD600, 16 h | 0.33% of 330,000 active | inhibition, % (no concentration beside the values);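 active = z-score of -3 or lower and OD600 up to 0.18 on both plates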;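 also: plate controls were untreated cells for no effect and reference antibiotic for full effect; stock transfer was 100 nL into about 80 µL; one replicate is shown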
Sa ugtP lethal: growth inhibition of S. aureus ugtP deletion strain | 0.54% of 330,000 active | AID 1259309 | S. aureus RN4220 ugtP deletion, OD600 growth, 16 h; some inactives read as strong as hits | growth inhibition, % (no concentration beside the values);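 active = z-score under -3 and OD600 up to 0.15 on both plates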;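 also: plate controls were untreated wells for no effect and antibiotic for full effect; wells of about 80 µL received 100 nL stock; the first replicate is given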
Autofluor counter: flagged as autofluorescent in microsphere protease counterscreen | 3.1% of 360,000 active | fluorescence intensity (no concentration beside the values) | compound autofluorescence counterscreen, microsphere flow cytometry; hits give high values;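 active = at least 3 SD above the mean of all compounds, about 16000 in these data; inconclusive = too few beads counted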;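 also: 100 nL of 1 mM stock went into each well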
Mtb hypoxia inh: Mtb hypoxia fluorescent reporter inhibition. 0.1% of 300,000 active. fluorescence inhibition, % (test concentration not listed). M. tuberculosis hypoxia-regulated fluorescent reporter, fluorescence. AID 1159583;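 active = 35 to 45% if threefold the growth effect, above 45% if 1.5-fold the growth effect; inactive = the rest, general growth blockers included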;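 also: wells of about 50 µL received 100 nL stock; 0% = vehicle wells and 100% = reference inhibitor wells; whole bacteria with a GFP reporter of the hypoxia response; strong numbers were not always called active; many hits fall short of the cut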
Mtb hypoxia inh growth: also measured in Mtb hypoxia inh; calls as there; growth inhibition, %; measured here: M. tuberculosis growth (absorbance);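 0% = vehicle and 100% = reference antibiotic; read after six days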
* marks the source's active call; other numbers are inactive results.

For COCC(=O)NC1(c2nnnn2CCOC(=O)Nc2ccc(Cl)cc2)CCCCC1 the results were BJeLR lethal 5.8, PrP UTR inh -8.2, RN4220 kill -4.1, Sa ugtP lethal -2.5, Autofluor counter 4639, Mtb hypoxia inh -3.5 and Mtb hypoxia inh growth 1.5.
For C=CCN(CC=C)C(=S)Nc1ccc2nsnc2c1 the results were BJeLR lethal 10.9, PrP UTR inh -24.8, RN4220 kill 5.2, Sa ugtP lethal -5.1, Autofluor counter 4658, Mtb hypoxia inh 12.3 and Mtb hypoxia inh growth 5.5.
O=C(O)COc1ccc(C=NNc2nc(Nc3ccccc3)nc(N3CCCCC3)n2)cc1 was read as RN4220 kill 12.2, Sa ugtP lethal 12.5, Mtb hypoxia inh -10.7 and Mtb hypoxia inh growth 0.9.
Cc1ccc2oc(=O)c(-c3ccc(O)cc3)c(C)c2c1 was read as PrP UTR inh -10.9, RN4220 kill 6.2, Sa ugtP lethal -2.7 and Autofluor counter 3400.
`O=C(NCCCN1CCCC1=O)c1ccc(Cl)c(Cl)c1` gave BJeLR lethal -4.1, PrP UTR inh -13.2, RN4220 kill 3.2, Sa ugtP lethal 7.2, Autofluor counter 4569, Mtb hypoxia inh 4.1 and Mtb hypoxia inh growth -7.7.
Screening CCC(C)[C@H](NC(=O)N1CC(=O)Nc2ccccc21)C(=O)NC(C)CCc1ccccc1 (some centres undefined) returned BJeLR lethal -14.5, PrP UTR inh -25.2, RN4220 kill 2.3, Sa ugtP lethal 0.7, Autofluor counter 5309, Mtb hypoxia inh 7.3 and Mtb hypoxia inh growth 3.9.
CCN=c1scc(-c2ccco2)n1N=Cc1ccc(O)cc1 was read as RN4220 kill 12.1, Sa ugtP lethal 21.5, Mtb hypoxia inh 8.2 and Mtb hypoxia inh growth 8.6.
For CC(=O)Nc1ccc(NC(=O)CN2CCN(c3cccc(C(F)(F)F)c3)CC2)cc1 the results were BJeLR lethal 4.1, PrP UTR inh -4.5, RN4220 kill 0.9, Sa ugtP lethal -12.0 and Autofluor counter 2572.
For COc1ccc2c(Cl)c(C(=O)N/N=C/c3ccncc3)sc2c1 the results were BJeLR lethal 1.2, PrP UTR inh -5.0 and Autofluor counter 3621.
`COc1ccc(NC(=O)c2ccc3c(c2)OCO3)cc1` gave BJeLR lethal 9.9, PrP UTR inh -28.4, RN4220 kill 1.8, Sa ugtP lethal 3.8, Autofluor counter 4117, Mtb hypoxia inh 9.3 and Mtb hypoxia inh growth 5.0.
Screening CCOc1cc(/C=N/NC(=O)CSc2nncn2C)ccc1OCC(N)=O returned BJeLR lethal 12.2, PrP UTR inh -8.4 and Autofluor counter 3121.
Screening O=C(O)c1cccc(N2C(=O)Nc3ccccc3N2O)c1 returned BJeLR lethal -3.2, PrP UTR inh -22.6, RN4220 kill 0.6, Sa ugtP lethal -0.8, Autofluor counter 1950, Mtb hypoxia inh 7.4 and Mtb hypoxia inh growth 5.6.
For Cc1cc(-c2nnco2)c(C)n1-c1ccc(F)cc1 the results were BJeLR lethal -6.6, PrP UTR inh -9.8, RN4220 kill 2.4, Sa ugtP lethal 2.9, Autofluor counter 8141, Mtb hypoxia inh 1.8 and Mtb hypoxia inh growth -6.3.
Screening CC(C)CNS(=O)(=O)c1cc(C(=O)N2CCOCC2)c(Cl)cc1Cl returned BJeLR lethal 6.9, PrP UTR inh 5.2, RN4220 kill 2.6, Sa ugtP lethal 8.8, Autofluor counter inconclusive, Mtb hypoxia inh -1.0 and Mtb hypoxia inh growth -5.9.
`O=[N+]([O-])c1cccc(/C(=N/N=C/c2ccccc2Br)C23CN4CN(CN(C4)C2)C3)c1` gave BJeLR lethal 4.1, PrP UTR inh 0.8 and Autofluor counter 4190.

Some of these compounds in order of heavy-atom count, smallest number first:
For C=CCN(CC=C)C(=S)Nc1ccc2nsnc2c1 the results were BJeLR lethal 10.9, PrP UTR inh -24.8, RN4220 kill 5.2, Sa ugtP lethal -5.1, Autofluor counter 4658, Mtb hypoxia inh 12.3 and Mtb hypoxia inh growth 5.5.
Screening CC(C)CNS(=O)(=O)c1cc(C(=O)N2CCOCC2)c(Cl)cc1Cl returned BJeLR lethal 6.9, PrP UTR inh 5.2, RN4220 kill 2.6, Sa ugtP lethal 8.8, Autofluor counter inconclusive, Mtb hypoxia inh -1.0 and Mtb hypoxia inh growth -5.9.
`O=[N+]([O-])c1cccc(/C(=N/N=C/c2ccccc2Br)C23CN4CN(CN(C4)C2)C3)c1` gave BJeLR lethal 4.1, PrP UTR inh 0.8 and Autofluor counter 4190.

The results go on:
Screening Oc1ccccc1N1CCN(c2ncnc3scc(-c4ccccc4)c23)CC1 returned BJeLR lethal -3.2, PrP UTR inh -17.2, RN4220 kill -3.5, Sa ugtP lethal -25.3, Autofluor counter 6145, Mtb hypoxia inh -10.9 and Mtb hypoxia inh growth -7.3.
Screening Cc1cc(C(=O)NNS(=O)(=O)c2cccc(Cl)c2)nn1C(C)(C)C returned BJeLR lethal 1.3, PrP UTR inh -7.7, RN4220 kill 9.7, Sa ugtP lethal 8.3, Autofluor counter 4787, Mtb hypoxia inh 5.8 and Mtb hypoxia inh growth 12.6.
Cc1ccc(NC(=O)CNC(=O)c2cccs2)cc1S(=O)(=O)Nc1ccc(Cl)cc1 was read as BJeLR lethal -12.6, PrP UTR inh -29.2, RN4220 kill -4.8, Sa ugtP lethal -11.9, Autofluor counter 8807, Mtb hypoxia inh 7.9 and Mtb hypoxia inh growth -1.7.
Screening COc1ccc(C(=O)Nc2cc(C)nn2-c2cccc(F)c2)cc1OC returned BJeLR lethal -4.0, PrP UTR inh -13.3, RN4220 kill 2.6, Sa ugtP lethal 4.6, Autofluor counter 3340, Mtb hypoxia inh 9.6 and Mtb hypoxia inh growth 3.1.
Screening O=C(NCCc1ccccc1)C(=O)NCCC1CCCCN1S(=O)(=O)c1ccccc1 (centres undefined) returned BJeLR lethal -5.9, PrP UTR inh -4.3, RN4220 kill 2.0, Sa ugtP lethal 16.4, Autofluor counter inconclusive, Mtb hypoxia inh 13.0 and Mtb hypoxia inh growth 0.5.
Screening COCCn1c(C)cc(/C=N/NC(=O)c2cccnc2)c1C returned BJeLR lethal 5.8, PrP UTR inh -33.0 and Autofluor counter 5262.
Screening CCCCN1C(=O)C2C(c3ccc(OC)cc3O)NC(CC(C)C)(C(=O)O)C2C1=O (centres undefined) returned BJeLR lethal 9.6, PrP UTR inh -18.0, RN4220 kill 6.7, Sa ugtP lethal -4.1 and Autofluor counter 4881.
Screening Cc1ccc2nc(NC(=S)NC(=O)c3cccs3)sc2c1 returned BJeLR lethal 1.7, PrP UTR inh -91.6, RN4220 kill -3.5, Sa ugtP lethal -8.7, Autofluor counter 2414, Mtb hypoxia inh 7.8 and Mtb hypoxia inh growth 9.4.
For CN(C(=O)c1ccccn1)c1nnc(-c2cccnc2)s1 the results were PrP UTR inh -9.1, RN4220 kill -1.6, Sa ugtP lethal 1.0, Autofluor counter 3751, Mtb hypoxia inh 1.9 and Mtb hypoxia inh growth 0.4.
CC(C)(C)n1nnnc1C(c1cccnc1)N1CCN(C2CCCCC2)CC1 (centres undefined) was read as BJeLR lethal 2.4, PrP UTR inh -38.1, RN4220 kill 5.3, Sa ugtP lethal 2.7, Autofluor counter 8281, Mtb hypoxia inh 2.4 and Mtb hypoxia inh growth 4.1.
Screening Cc1ccc2nc(SCC(=O)Nc3ccc4c(c3)OCO4)nc(=O)n2c1 returned BJeLR lethal 5.0, PrP UTR inh -19.6, RN4220 kill 0.8, Sa ugtP lethal 14.1, Autofluor counter 6242, Mtb hypoxia inh 4.3 and Mtb hypoxia inh growth -3.0.
Screening CCC1CCCCN1C(=O)c1c(-c2ccccc2)noc1C (centres undefined) returned BJeLR lethal -10.0, PrP UTR inh 0.3, RN4220 kill -3.1, Sa ugtP lethal -7.1, Autofluor counter 3086, Mtb hypoxia inh 12.6 and Mtb hypoxia inh growth 7.1.
For Cc1ccc(C(=O)O)cc1-c1ccc(/C=C2\SC(=O)N(CC(=O)Nc3ccc4c(c3)OCO4)C2=O)o1 the results were BJeLR lethal 2.4, PrP UTR inh -3.8 and Autofluor counter 6004.
Screening O=C1N(Cc2cccnc2)C[C@@H]2C[C@@H](c3cccc(OC4CCCC4)c3)N3CCC[C@@]123 returned BJeLR lethal 0.0, PrP UTR inh -8.7, RN4220 kill 2.6, Sa ugtP lethal -3.5, Autofluor counter 14444, Mtb hypoxia inh 0.3 and Mtb hypoxia inh growth 4.4.
For CC(=O)c1ccc(NC(=O)COC(=O)CCc2ccc(S(=O)(=O)N3CCOCC3)cc2)cc1 the results were BJeLR lethal -1.1, PrP UTR inh -15.1, RN4220 kill 4.7, Sa ugtP lethal -1.1, Autofluor counter 3239, Mtb hypoxia inh 5.2 and Mtb hypoxia inh growth 2.0.

The last 2 entries of the section before come first, to join the parts.
Screening O=C1N(Cc2cccnc2)C[C@@H]2C[C@@H](c3cccc(OC4CCCC4)c3)N3CCC[C@@]123 returned BJeLR lethal 0.0, PrP UTR inh -8.7, RN4220 kill 2.6, Sa ugtP lethal -3.5, Autofluor counter 14444, Mtb hypoxia inh 0.3 and Mtb hypoxia inh growth 4.4.
For CC(=O)c1ccc(NC(=O)COC(=O)CCc2ccc(S(=O)(=O)N3CCOCC3)cc2)cc1 the results were BJeLR lethal -1.1, PrP UTR inh -15.1, RN4220 kill 4.7, Sa ugtP lethal -1.1, Autofluor counter 3239, Mtb hypoxia inh 5.2 and Mtb hypoxia inh growth 2.0.
Screening CN(c1nc2c(c(=O)n(C)c(=O)n2C)n1CC(=O)c1ccccc1)C1CCCCC1 returned BJeLR lethal 3.5, PrP UTR inh -15.9, RN4220 kill -0.6, Sa ugtP lethal -1.2 and Autofluor counter 4290.
`O=C(COC(=O)c1ccc([N+](=O)[O-])o1)Nc1ccc(Br)cc1F` gave PrP UTR inh -32.3, RN4220 kill 11.5, Sa ugtP lethal 12.2, Mtb hypoxia inh -1.4 and Mtb hypoxia inh growth -1.7.
`COC(=O)Cn1cc(C#N)c2ccccc21` gave BJeLR lethal -3.5, PrP UTR inh -28.3, RN4220 kill 4.4, Sa ugtP lethal 1.0, Autofluor counter 2659, Mtb hypoxia inh 5.3 and Mtb hypoxia inh growth 1.1.
`CC(=O)N1N=C(c2ccc(C)cc2)OC1c1cccnc1` (centres undefined) gave BJeLR lethal 2.5, PrP UTR inh -18.3, RN4220 kill 3.4, Sa ugtP lethal 10.0, Autofluor counter 3949, Mtb hypoxia inh -15.3 and Mtb hypoxia inh growth -10.5.
For Cc1cc(C(=O)OC(C(=O)Nc2cccc(C(F)(F)F)c2)c2ccccc2)c(C)o1 (centres undefined) the results were BJeLR lethal -0.5, PrP UTR inh -26.4, RN4220 kill -7.5, Sa ugtP lethal -8.6, Autofluor counter 2152, Mtb hypoxia inh -6.5 and Mtb hypoxia inh growth 5.8.
`COC(=O)c1ccc(OCCOc2ccccc2C)cc1` gave BJeLR lethal 0.6, PrP UTR inh -10.9, RN4220 kill 7.5, Sa ugtP lethal 21.8, Autofluor counter 4400, Mtb hypoxia inh 10.0 and Mtb hypoxia inh growth 5.1.
For COc1cnn(-c2ccc(C)cc2)c(=O)c1Cl the results were BJeLR lethal -0.3, PrP UTR inh -38.1, RN4220 kill 4.1, Sa ugtP lethal 11.9, Autofluor counter 4776, Mtb hypoxia inh 19.8 and Mtb hypoxia inh growth 0.2.
`Cc1ccc(C(=O)OCC(=O)NC2CCCCC2)cc1S(=O)(=O)N1CCCCC1` gave PrP UTR inh -3.8, RN4220 kill 1.3, Sa ugtP lethal 0.6, Autofluor counter 8158, Mtb hypoxia inh 16.1 and Mtb hypoxia inh growth 1.4.
`COc1ccccc1-c1ccc(/C=C2/C=C(CC(C)C)OC2=O)o1` gave BJeLR lethal -8.7, PrP UTR inh -4.0, RN4220 kill 2.2, Sa ugtP lethal -2.1, Autofluor counter 2302, Mtb hypoxia inh 2.4 and Mtb hypoxia inh growth 13.5.
Screening CCOc1ccc(C(=O)NC2C(=O)N3C(C(=O)O)=C(COC(C)=O)CSC23)cc1OCC (centres undefined) returned PrP UTR inh -22.5, RN4220 kill 41.3, Sa ugtP lethal 23.8, Autofluor counter 5991, Mtb hypoxia inh -0.6 and Mtb hypoxia inh growth 6.9.
For CCCCN1C(=O)C(C#N)CC2=C1CC(C)(C)CC2=O (centres undefined) the results were PrP UTR inh -12.2, RN4220 kill 1.9, Sa ugtP lethal -0.1, Autofluor counter 3778, Mtb hypoxia inh -5.7 and Mtb hypoxia inh growth 1.1.
For CCOC(=O)C1=C(C)Nc2ccccc2N=C1NC(=O)C(c1ccccc1)c1ccccc1 the results were BJeLR lethal -2.0, PrP UTR inh -10.5, RN4220 kill -9.3, Sa ugtP lethal -3.7, Autofluor counter 4546, Mtb hypoxia inh 2.6 and Mtb hypoxia inh growth -4.5.
